# MLL AF4-AF9 inh – inhibitors of AF4 peptide binding to AF9, primary screen, biochemical, AlphaScreen, biotin-AF4 peptide, FLAG-AF9, single point. inhibition, % at 10 µM. hit rate 0.47% among 350,000. Protein AF-9 (Homo sapiens), P42568;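 active = every replicate reaching a set inhibition limit, whatever the replicate mean, cut at about 25% in these data; inconclusive = mean inhibition reaches that limit but some replicates miss it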;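 also: 0% = plate neutral control median and 100% = total signal loss; the record names both 10 and 1 µM as test concentration; the first replicate is given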
# A1 inh – caspase 3/7 activation in MEF A1-2A-BIM cells, primary screen, A1 inhibitor project, cell-based, luminescence, HTS; AID 2462, 2010; caspase activation, % (concentration not given with the values); Caspase-Glo 3/7 luminescence, 3 h; percent of clofoctol response, vehicle zero; hit rate 0.066% among 330,000;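 active = over half of replicate activation scores above 10%, or exactly half above 10 with the replicate mean above 10; inconclusive = replicate mean below 10 yet half the replicates above 10; inactive = over half of replicates below 10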;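 also: wells of about 30 µL received 50 nL stock; many hits fall short of the cut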
# T cruzi repl – inhibitors of intracellular T. cruzi growth, primary screen, luminescence, NIH3T3 host cells; T. cruzi beta-gal in NIH3T3, 90 h; hit rate 1.4% among 300,000; inhibition, % (no concentration beside the values);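 active = mean inhibition across valid replicates above about 55%, limit read from the data; inconclusive = mean below that limit but half or more replicates reach it; inactive = mean below it, under half of replicates reach it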;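 also: signal also drops with host cell toxicity which is not excluded here; 0% = plate median of DMSO wells and 100% = zero luminescence signal; higher percent means less beta-gal luminescence so fewer parasites; stock transfer was 50 nL into about 50 µL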
# Beta cell apopt – inhibitors of cytokine-induced beta cell apoptosis, primary screen, luminescence | INS-1E cytokine-induced death, ATP luminescence, 48 h; percent of positive-control rescue, neutral wells zero | protection from apoptosis, % (no concentration beside the values) | hit rate 0.8% among 300,000 | AID 435005, 2010;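 active = all replicates at 75% or more, or half of them and the mean; inconclusive = half reach 75% but not the mean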;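 also: 0% = cytokine-treated negative control wells and 100% = positive control rescue; higher means more ATP so stronger rescue from cytokine killing; wells of about 40 µL received 100 nL stock; the first replicate is given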
# LANA-H2B inh – blockers of LANA interaction with H2A/H2B – biochemical, FP readout, HTS, primary screen | cell-free LANA-H2A/H2B peptide, fluorescence polarization | inhibition, % (no concentration beside the values) | hit rate 0.6% among 320,000; in the data active = inhibition mostly above about 10%, no sharp cut-off; inactive = mostly below about 6.7%;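 also: stock transfer was 7.5 nL into about 10 µL; 0% = median of vehicle wells and 100% = median of positive control wells; one replicate is shown; the record names a cut of 25% in any replicate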
# Target sequence (Q9QR71 whole entry, looked up): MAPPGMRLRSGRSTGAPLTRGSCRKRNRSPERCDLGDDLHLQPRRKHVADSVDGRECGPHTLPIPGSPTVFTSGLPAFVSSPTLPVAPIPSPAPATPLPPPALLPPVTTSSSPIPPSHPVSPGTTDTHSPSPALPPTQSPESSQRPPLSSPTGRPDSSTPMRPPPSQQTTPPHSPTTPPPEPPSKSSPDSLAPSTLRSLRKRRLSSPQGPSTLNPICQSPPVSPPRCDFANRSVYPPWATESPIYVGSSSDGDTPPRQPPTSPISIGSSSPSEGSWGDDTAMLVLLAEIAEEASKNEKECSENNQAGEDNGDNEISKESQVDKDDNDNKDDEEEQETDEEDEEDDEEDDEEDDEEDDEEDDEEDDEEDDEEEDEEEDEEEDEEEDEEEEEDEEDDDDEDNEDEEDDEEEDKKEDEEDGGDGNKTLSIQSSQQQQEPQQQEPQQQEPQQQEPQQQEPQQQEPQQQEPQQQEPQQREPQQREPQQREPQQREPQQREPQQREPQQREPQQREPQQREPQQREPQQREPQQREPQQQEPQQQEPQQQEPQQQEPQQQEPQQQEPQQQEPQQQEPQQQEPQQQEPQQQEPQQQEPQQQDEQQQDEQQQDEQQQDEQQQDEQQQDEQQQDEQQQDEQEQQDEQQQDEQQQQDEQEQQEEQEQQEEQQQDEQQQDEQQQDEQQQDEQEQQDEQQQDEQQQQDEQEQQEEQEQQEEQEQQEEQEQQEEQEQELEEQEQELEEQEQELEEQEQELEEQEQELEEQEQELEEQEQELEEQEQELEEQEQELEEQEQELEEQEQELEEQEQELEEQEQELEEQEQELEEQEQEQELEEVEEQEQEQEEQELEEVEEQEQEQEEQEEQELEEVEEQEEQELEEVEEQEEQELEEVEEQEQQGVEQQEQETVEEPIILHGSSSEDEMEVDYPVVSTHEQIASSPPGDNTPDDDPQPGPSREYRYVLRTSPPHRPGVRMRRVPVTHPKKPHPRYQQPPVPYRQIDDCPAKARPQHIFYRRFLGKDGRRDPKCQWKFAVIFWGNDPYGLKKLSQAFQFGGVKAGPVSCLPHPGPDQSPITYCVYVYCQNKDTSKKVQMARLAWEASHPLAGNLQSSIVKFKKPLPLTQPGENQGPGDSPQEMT
# RanGTP-Impb inh – inhibitors of RanGTP-importin-beta interaction, primary screen, biochemical, FRET, CFP-Ran, YFP-importin-beta, homogeneous; Ran GTPase (GTP-bound) - importin-beta complex; cell-free CFP-Ran/YFP-importin-beta FRET ratio; inhibition, % (concentration not given with the values); hit rate 1.1% among 300,000; AID 2216, 2009;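 active = most replicates above 15%; inconclusive = exactly half above 15%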;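 also: 0% = DMSO wells and 100% = Ran loaded with GDP instead of GTP; wells of about 40 µL received 100 nL stock; the first replicate is given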
# Calb FLC – C. albicans growth inhibition with fluconazole, primary screen, CaCi-2 strain, Alamar Blue fluorescence | C. albicans CaCi-2 (fluconazole-resistant clinical isolate) + fluconazole, 48 h | hit rate 0.57% among 300,000 | AID 1979, 2009 | growth inhibition, % (no concentration beside the values);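 active = most replicates above 75%; inconclusive = exactly half above 75%; inactive = most below 75%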;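 also: all wells also contain fluconazole at 8 µg/ml as a sub-toxic cotreatment; 0% = median of DMSO wells and 100% = median of geldanamycin control wells; wells of about 8 µL received 7.5 nL stock; the first replicate is given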
# Vif TR-FRET – inhibitors of Vif binding to APOBEC3G peptide, primary screen, biochemical, TR-FRET, GST-Vif 1-94, biotin-A3G peptide, dose response retest (AID 1117319); Virion infectivity factor (Human immunodeficiency virus type 1 group M subtype B (isolate …; TR-FRET GST-Vif / biotin-A3G peptide binding; higher % means a stronger effect; test concentration not given here; strong numbers were not always called active; inhibition, %; hits with a dose series show IC50 in µM; hit rate 0.57% among 260,000;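 active = above the screen mean plus three standard deviations and confirmed in dose response; inconclusive = results disagree or hit not tested in dose response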;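 also: Vif residues 1-94 fused to GST binding biotinylated APOBEC3G peptide 110-148; 0% = full assay without inhibitor and 100% = GST in place of GST-Vif; retest series ran down from 100 µM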
# An asterisk follows results filed as active; u = inconclusive; x = not tested or not shown. Compounds as they come (roughly 4.3% active in at least one column).
SMILES,MLL AF4-AF9 inh,A1 inh,T cruzi repl,Beta cell apopt,LANA-H2B inh,RanGTP-Impb inh,Calb FLC,Vif TR-FRET
CN1C(=O)/C(=C/c2cn(CC(=O)NCc3ccco3)c3ccccc23)NC1=S,-3.7,-0.8,10,-8,0.5,4.2,-1,x
COc1ccc(C2=[N+]([O-])C(C)(C)N(O)C2C)cc1 (stereo not drawn),x,-0.1,-6,-9,1.0,0.5,0,-6%
O=C(CCNC(=O)c1ccco1)NCCc1ccc(Cl)cc1,-0.4,-1.4,-14,-2,2.1,-1.1,7,x
CCOc1cc(/C=C2\C(=O)N(c3cccc(C(F)(F)F)c3)C(=O)c3ccccc32)ccc1O,x,-0.4,5,-7,2.7,-2.9,-4,-1%
O=C(C1CCCC1)N1CCN=C1SCc1cccc([N+](=O)[O-])c1,-3.0,0.9,9,-14,-1.5,-4.7,-1,6%
CC(C)(C)NC(=O)CSc1nc(O)cc(=O)n1-c1ccccc1F,x,0.2,0,-3,-0.9,-5.6,4,1%
COC(=O)c1cnc2c(C(F)(F)F)cccc2c1OC,x,0.1,x,-2,2.2,x,x,-2%
Cc1ccc(O)c(C(=O)c2coc(=N)c(C(=O)NC(C)C)c2)c1,x,0.1,-8,-6,-5.9,1.3,-15,-4%
Cc1ccc(S(=O)(=O)NNC(=S)NCCc2ccccc2)cc1,2.0,-0.7,x,-6,0.6,-1.3,3,-11%
COc1cc(Br)c(CN2C(=O)NC3(CCCCCC3)C2=O)cc1OC,-0.7,1.8,0,-4,-1.8,2.9,0,8%
Cc1ccc(CNC(=O)CN(C)S(=O)(=O)c2cccc3nsnc23)cc1,x,0.6,2,-2,-0.9,1.1,3,2%
O=C(CC12CC3CC(CC(C3)C1)C2)N1CCCC1,-5.2,0.2,-1,-10,4.3,0.5,1,0%
O=C(CSc1nnnn1C1CCCCC1)Nc1ccccc1N1CCOCC1,3.3,-0.2,-1,-10,-9.2,5.3,-6,8%
Cc1ccccc1CSc1nnc(CCCCCNC(=O)OC(C)(C)C)o1,-2.6,-0.6,9,-4,-0.1,1.5,-9,-7%
COc1ccc(/C=C/c2nc3ccccc3n2Cc2ccc(OC)c(OC)c2)cc1,9.5,-3.9,16,-2,-4.2,u,1,5%
O=C(NCCN1C(=O)S/C(=C\c2ccc(OC(F)F)cc2)C1=O)C1=COCCO1,x,1.0,29,x,0.0,-3.5,-3,9%
Cc1nc(Cl)cc(N/N=C/c2ccc(O)cc2)n1,0.1,-13,-8,11,-1.1,1.6,-2,x
CCOC(=O)c1ccc(CNC(=O)CCC(=O)O)cc1,x,-1.3,-3,-9,1.4,-1.2,-8,-4%
CCOP(=O)(OCC)C(Nc1ccccc1)c1ccc2c(c1)OCO2 (stereo not drawn),1.9,-0.6,4,-7,-5.2,-5.1,-23,x
O=C1CCCC2=C1Sc1ccccc1N2,6.1,2.7,-21,x,0.1,-0.1,9,x
CC1CCCCC1NC(=O)COC(=O)/C=C/c1ccco1 (stereo not drawn),3.8,1.1,x,-3,-0.6,x,x,x
Cc1cc(Cl)c(S(=O)(=O)Nc2ccc3c(c2)OCO3)cc1OCC(=O)NC1CCCCC1,x,-0.4,12,2,0.2,3.1,1,4%
Cc1ccc(-n2ncc3c(SCc4ccccn4)ncnc32)c(C)c1,-4.1,1.1,35,6,-3.2,8.4,19,0%
O=C(CN(Cc1ccccc1Cl)S(=O)(=O)c1ccc(Cl)cc1)N/N=C/c1ccc(C(=O)O)cc1,1.3,-0.9,-22,-1,4.3,-1.4,7,-2%
C=CCCC(=O)Nc1nc(C)c(-c2csc(Nc3cccc(OC)c3)n2)s1,8.5,0.1,-7,4,6.3,-0.4,-3,7%
COC(=O)C1CCN(C(=O)C2CCC(=O)N(CCCc3ccccc3)C2)CC1 (stereo not drawn),2.3,1.6,-5,-2,1.0,2.1,0,x
CCCCC(=O)NC(=S)Nc1cc(C(=O)O)ccc1OC,-1.2,0.6,-12,-1,-7.8,x,-6,6%
CCC(CC)c1nnc(NC(=O)/C=C/c2ccco2)s1,x,0.0,-23,-9,5.1,2.6,4,u
c1cn(-c2ccc(-c3ccnc4ncnn34)cc2)cn1,0.4,-0.4,-15,x,3.9,-0.6,6,-8%
CC1(C)CC(=O)C=C(NNC(=O)OC(C)(C)C)C1,-0.6,0.3,10,1,1.9,x,-9,21%
COC(=O)COc1ccc2c(c1C)O/C(=C\c1ccco1)C2=O,1.7,1.5,1,-5,0.3,47*,-4,>100µM*
Cc1cccc(N2CCN(C(=S)NC3CCCCC3)CC2)c1C,3.6,0.4,17,4,1.9,-2.1,-11,-2%
CC(CNS(=O)(=O)c1ccccc1)Sc1ncccn1 (stereo not drawn),-3.8,0.2,5,-5,1.7,1.9,3,u
CCc1nnc(NC(=O)c2nc3nccc(C)n3n2)s1,x,-0.3,-13,-1,1.5,-3.4,-7,10%
Cn1c(O)c(C=Nc2ccc(N3CCOCC3)cc2)c(=O)n(C)c1=S,-11,x,-17,x,x,-3.6,-7,1%
COc1ccc(CCNC(=O)c2ccc3ccccc3n2)cc1OC,-3.2,0.2,15,0,5.3,-5.5,-5,-10%
O=C(N/N=C/c1cc([N+](=O)[O-])ccc1O)c1cccc(NC(=O)c2cccc(Cl)c2)c1,-7.9,-1.1,19,81*,4.1,5.9,-7,x
CCOC(=O)c1cccc(NC(=O)c2ccc(NC(=O)c3ccco3)cc2)c1,-2.8,0.3,5,2,0.7,2.6,1,0%
CC(C)c1ccc(NC(=S)Nc2ccc3[nH]c(=O)[nH]c3c2)cc1,3.3,1.0,-9,3,-0.5,3.3,10,1%
Cc1ccc2cc(CN(CCN3CCCC3)C(=O)Nc3ccccc3)c(=O)[nH]c2c1C,x,u,11,2,-9.2,-0.6,-9,-2%
O=C(c1ccc(Cl)nc1)N1CCC(Cc2ccccc2)CC1,-0.9,0.1,1,-1,2.4,-1.3,-6,-3%
Cc1ccc(-n2nc(C(=O)O)cc2-c2ccccc2)cc1,x,1.6,-13,-3,-1.1,-3.8,25,0%
Cc1nc2cc(-c3sccc3-n3cccc3)nn2c(C)c1C,x,-1.2,19,3,0.0,-4.0,-14,-7%
CC(NC(=O)C1(c2cccs2)CCOCC1)c1ccccc1 (stereo not drawn),-1.6,0.5,-1,x,-1.7,5.2,0,-13%
CCOC(=O)c1cnn(-c2sc(C(=O)OCC)c(C)c2C(=O)OCC)c1N,-2.8,-0.4,-10,x,-5.9,-1.0,11,x
O=C(COc1ccccc1)Nc1ccccc1NS(=O)(=O)c1cccs1,-1.8,0.9,-9,-7,3.4,-1.5,u,u
CC(C)Sc1nc(SCC(=O)O)c2c3c(sc2n1)COC(C)(C)C3,-9.4,0.8,38,2,-5.3,-1.6,-6,30%
CC(C)C(C(=O)NCc1ccccc1)N(CC1CCCO1)C(=O)CNS(=O)(=O)c1ccccc1 (stereo not drawn),3.6,1.0,21,-3,2.6,4.3,12,x
COC(=O)c1sc(N)c(C(=O)OC)c1COC(=O)CNS(=O)(=O)c1ccc(C)cc1,x,0.0,6,-1,0.9,0.7,10,x
O=C(CSc1nnc(-c2ccco2)n1-c1ccccc1)Nc1c(Cl)cc(Cl)cc1C(=O)O,4.6,-0.6,x,-3,5.7,x,x,-12%
CCOC(=O)N1CCN(C(=O)CNC(=O)c2ccc(Cl)cc2Cl)CC1,-0.5,-0.1,x,-4,-1.8,x,x,3%
COc1cc(OC)cc(C(=O)N[C@H](C(=O)OCC(=O)c2ccc3c(c2)NC(=O)CO3)C(C)C)c1,x,0.7,10,1,2.4,2.5,-2,2%
COc1ccc(N2CCN(C(=O)c3cc(-c4cc(OC)ccc4OC)nc4ccccc34)CC2)cc1,13,-0.9,11,1,0.5,x,x,x
Cc1ccc(/C=C/c2onc(C)c2S(=O)(=O)N2CCC(C(=O)NC(C)(C)C)CC2)cc1,3.6,0.4,0,11,0.8,-1.1,1,x
CCOC(=O)N1CCC(Nc2ncnc3c2cnn3-c2ccccc2)CC1,x,1.0,-2,8,-1.5,4.1,20,24%
CC(C)(C)c1ccc(N2C(=O)CSC2c2cccnc2)cc1 (stereo not drawn),-0.4,-0.4,18,0,-5.4,4.3,-7,x
O=C(COC(=O)COc1ccccc1)NCc1ccco1,0.0,0.4,-12,0,18*,u,12,x
CC1=C(C(=O)c2ccccc2)C(c2cccc([N+](=O)[O-])c2)NC(=S)N1 (stereo not drawn),3.5,-0.2,-6,-3,-2.9,-0.1,13,12%
CCCCc1nnc(NC(=O)CCN2C(=O)C3CC=CCC3C2=O)s1 (stereo not drawn),-1.2,-0.3,x,-5,2.2,x,x,-12%
COc1cccc(NC(=O)CSc2ccc3nnc(-c4cccnc4)n3n2)c1,0.5,-1.0,-1,-2,-0.9,4.4,-3,-12%
# Carrying on:
SMILES,MLL AF4-AF9 inh,A1 inh,T cruzi repl,Beta cell apopt,LANA-H2B inh,RanGTP-Impb inh,Calb FLC,Vif TR-FRET
COc1ccc(CCN(C)C(=O)c2cc(-c3ccc(C)cc3)nc3ccccc23)cc1OC,16,-0.1,22,0,4.6,0.6,14,x
O=C1Nc2ccccc2C(O)(C(=O)NC2CC2)N1c1ccc(Cl)c(Cl)c1 (stereo not drawn),x,-0.3,2,x,3.3,-0.7,-17,6%
O=C(NNC(=O)C1CC1c1ccccc1)Nc1cccc(Cl)c1 (stereo not drawn),x,-0.8,-3,-3,-3.8,-3.7,17,-3%
COc1ccc(-c2nc3n(c2C)CCC3)cc1,-2.7,0.6,-1,-4,1.3,2.0,7,10%
N#CC(C(=O)NC1CCCCC1)c1nc2ccccc2nc1N1CCN(c2ccccc2F)CC1 (stereo not drawn),x,-0.2,x,5,2.3,x,x,-4%
NC(=O)c1ccsc1NC(=O)c1cccs1,-39,-3.1,5,-7,0.4,-2.5,-3,x
CC(C)[C@H](NC(=O)c1ccccc1Br)C(=O)OCc1nc2ccsc2c(=O)[nH]1,2.1,1.1,-4,3,3.4,2.6,0,5%
Cc1cc(S(=O)(=O)N2CCC3(CC2)OCCN3S(=O)(=O)c2cccs2)ccc1F,9.0,1.0,9,-2,3.4,0.9,1,3%
COc1ccc(C(NC(C)=O)c2cc(Cl)c3cccnc3c2O)cc1 (stereo not drawn),-5.5,0.8,63*,95*,-6.0,0.8,3,-4%
CC1CN(CC(O)COC(c2ccc(Cl)cc2)c2ccc(Cl)cc2)CC(C)O1 (stereo not drawn),x,0.1,29,106*,2.9,2.3,6,x
COC(=O)Cc1c(C)nc2nc[nH]n2c1=O,x,1.0,-11,x,-0.7,-0.1,-12,-3%
CC(C)N(C(=O)c1ccc(-c2ccccc2F)cc1)C(C)C,-0.5,-0.7,3,-1,0.1,-1.4,2,x
CCn1c(-c2ccc(-c3ccccc3)cc2)c[nH]c1=S,x,-2.9,u,-3,-7.7,-3.2,-3,-36%
O=C(NCc1ccc2c(c1)OCO2)c1nnc(Cc2ccc(F)cc2)o1,-7.0,0.4,-7,-8,0.0,u,-20,-1%

# Bioassay records: PubChem, several laboratories
